# Cruzain noTriton – qHTS Assay for Promiscuous and Specific Inhibitors of Cruzain (without detergent); 2.3% of 200,000 active; AID 1476, 2009; purified cruzain, Z-FR-AMC fluorescence, no detergent; Cruzipain (Trypanosoma cruzi), P25779; Potency, µM, for inactives: max response, negative = inhibition, hits mostly inhibitors; active = well fitted curve in the direction sought with a large enough effect; inconclusive = small, poorly fitted or top-dose-only effect, or another doubt; inactive = no such curve, though single readings can be large; an effect the other way counts as inactive or inconclusive;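 note: plate controls were enzyme without inhibitor for no effect and buffer without enzyme for full effect; nearly all actives have a fitted effect of over 40% in size; top concentration of the series not given in the record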
# Target sequence (P25779 123-467 limits assumed): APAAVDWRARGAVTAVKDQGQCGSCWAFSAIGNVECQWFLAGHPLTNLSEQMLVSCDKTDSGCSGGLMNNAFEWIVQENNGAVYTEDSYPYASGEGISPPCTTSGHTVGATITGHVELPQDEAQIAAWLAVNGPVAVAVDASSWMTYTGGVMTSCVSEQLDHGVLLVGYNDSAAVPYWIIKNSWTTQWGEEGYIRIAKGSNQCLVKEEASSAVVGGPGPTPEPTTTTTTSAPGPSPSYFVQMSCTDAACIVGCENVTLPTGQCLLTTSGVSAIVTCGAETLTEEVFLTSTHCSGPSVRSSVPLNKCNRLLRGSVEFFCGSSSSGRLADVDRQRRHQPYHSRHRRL
#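 Purified cruzain at 1.5 nM, pre-incubated 15 min with compound at room temperature in 100 mM sodium acetate pH 5.5, 5 mM DTT, 0.00005% Triton X-100. Reaction started with 2 uM Z-FR-AMC; AMC fluorescence increase over 60 s gives rate.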
# LASV entry inh – qHTS for Inhibitors of binding or entry into cells for Lassa Virus | AID 540256, 2011 | 1.2% of 300,000 active | Potency, µM (highest dose often 37.9 µM), without a hit: at the top dose activity change, negative = inhibition, hits mostly inhibitors | Lassa virus pseudotype entry inhibition, cell reporter; control for the full effect not named in the record; active means well fitted inhibition curve with a large enough effect; inconclusive means small, poorly fitted or top-dose-only effect, or effect the other way; inactive means flat fitted curve, though single readings scatter; tested in HEK293 cells; note: % is set by controls: 0 for no effect and ±100 for the full control effect; nearly all actives have a fitted effect of over 50% in size; luciferase read-out
# StopGo reporter – High Throughput Screening for Foot and Mouth Disease Virus Antivirals | Potency, µM (highest dose often 57.9 µM), for the others: at the top dose signal change, negative = less light | 1.2% of 410,000 active | human cells with a luciferase reporter of 2A StopGo recoding; control for the full effect not named in the record; active = well fitted falling curve with a large enough effect; inconclusive = small, poorly fitted or top-dose-only effect; inactive = no such curve, though single readings can be large or run the other way; tested in HEK293T cells; note: % is set by controls: 0 for no effect and ±100 for the full control effect; nearly all actives have a fitted effect of over 45% in size; luciferase light after 4 h
# Marburg entry inh – qHTS for inhibitors of binding or entry into cells for Marburg Virus; Potency, µM (doses to about 37.8 µM), for the others: top-dose activity change, negative = inhibition, most hits filed as inhibitors; AID 540276, 2011; Marburg virus pseudotyped entry inhibition, cell reporter; control for the full effect not named in the record; about a third of the inactives were read at about 46 µM; 1.8% of 300,000 active; active = well fitted inhibition curve with a large enough effect; inconclusive = small, poorly fitted or top-dose-only effect, or effect the other way; inactive = flat fitted curve, though single readings scatter; tested in HEK293 cells; about a fifth of its hits are not listed in these tables; note: % is set by controls: 0 for no effect and ±100 for the full control effect; luciferase read-out
# SARS PLpro yeast – qHTS of Yeast-based Assay for SARS-CoV PLP; Potency, µM (highest dose often 32.9 µM), for inactives: top-dose activity, positive = growth rescue; S. cerevisiae expressing SARS-CoV PLpro, growth rescue; control for the full effect not named in the record; 0.19% of 330,000 active; note: 0% is about no effect; nearly all actives have a fitted effect of over 55% in size; growth read by luminescence after 48 h
# NS1 function inh – qHTS Assay for Inhibitors of Influenza NS1 Protein Function; S. cerevisiae slowed by influenza A NS1, growth recovery by OD600; Potency, µM (top dose mostly 46.1 µM), for the others: at the top dose activity, positive = more growth; 0.4% of 270,000 active; AID 2326, 2010; note: actives are rising curves; nearly all actives have a fitted effect of over 50% in size
#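 In this qHTS, NS1 from influenza A is expressed in budding yeast, where it slows growth. Cells are switched from glucose to 2% galactose medium (pH 6.0, -URA), treated with compound, and growth recovery is read at OD600.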
# Cruzain inh Det – qHTS Assay for Promiscuous and Specific Inhibitors of Cruzain (with detergent) | Cruzipain (Trypanosoma cruzi), P25779 | AID 1478, 2009 | purified cruzain, Z-FR-AMC fluorescence, 0.01% Triton | Potency, µM, inactives show max response, negative = inhibition, usual class: inhibitors | 0.43% of 200,000 active; active = well fitted curve in the direction sought with a large enough effect; inconclusive = small, poorly fitted or top-dose-only effect, or another doubt; inactive = no such curve, though single readings can be large; an effect the other way counts as inactive or inconclusive;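 note: plate controls were neutral wells for no effect and buffer without enzyme for full effect; nearly all actives have a fitted effect of over 40% in size; top concentration of the series not given in the record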
#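 Z-FR-AMC hydrolysis (2 uM substrate) by cruzain (1.5 nM) monitored kinetically at ex 360/em 450 nm after 15 min room-temperature compound exposure; 0.01% Triton X-100, pH 5.5, 5 mM DTT.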
# RE007 growth inh – qHTS Assay for Inhibitors of the HIV-1 protein Vpr; S. pombe RE007 Vpr strain, BacTiter-Glo ATP luminescence, 24 h; control for the full effect not named in the record; Potency, µM (series often up to 92.2 µM), without a hit: at the top dose activity change, negative = less growth; 0.21% of 360,000 active; AID 651644, 2012; active = well fitted falling curve with a large enough effect; inconclusive = small, poorly fitted or top-dose-only effect; inactive = no such curve, though single readings can be large or run the other way;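 note: % is set by controls: 0 for no effect and ±100 for the full control effect; nearly all actives have a fitted effect of over 50% in size; the assay follows cell death caused by Vpr and the record does not say whether a fall means rescue or toxicity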
#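 Fission yeast strain RE007, carrying one chromosomally integrated HIV-1 vpr copy, was seeded at OD 0.01 in PMG+AL medium with 23 nL pinned compound. After 24 h at 30 °C and 99% humidity, viability was read by BacTiter-Glo luminescence.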
# An asterisk follows results filed as active; ? = inconclusive; / = not tested or not shown; & = joins results of further samples; [ ] = remark or other dose. Unless noted, calls come from the whole dose curve; as a rule, active means well fitted rising curve with a large enough effect; inconclusive means small, poorly fitted or top-dose-only effect; inactive means no such curve, though single readings can be large or run the other way. Potency is the fitted concentration of half-maximal effect.
SMILES	Marburg entry inh	NS1 function inh	Cruzain inh Det	SARS PLpro yeast	Cruzain noTriton	StopGo reporter	RE007 growth inh	LASV entry inh
COc1ccccc1NC(=O)c1oc2ccccc2c1NC(=O)c1cc(OC)c(OC)c(OC)c1	-20%&4%	-15%	/	/	/	0%	9%	?
O=C1CC(c2cccc(Cl)c2)Cc2nc(N3CCN(c4ccccc4)CC3)ncc21 (stereo not given)	-36%	2%	4.5%	1%	-26%	?	-5%	-6%
COc1ccc(C2C(C#N)=C(N)OC3=C2C(=O)CC(C)(C)C3)cc1OC (stereo not given)	3%	2%	/	2%	/	-7%	13%	?
O=C(c1cc([N+](=O)[O-])ccc1N1CCCCC1)N1CCCCC1	1%	-2%	-3.1%	3%	7%	-24%	2%	-16%[14.3 µM]
Cc1ccc(Cl)cc1NC(=O)Cn1c(=O)oc2cc(S(=O)(=O)N3CCCCCC3)ccc21	/	/	-0.4%	/	-7%	-23%	/	-6%[46.1 µM]
O=C(N/N=C/C=C/c1ccccc1)c1cccnc1	-12%[46.1 µM]	2%	/	1%	/	4%	13%	?
COc1cc(C2C(C#N)=C(N)Oc3cc(C)oc(=O)c32)cc2c1OCO2 (stereo not given)	3%	19%	-2.6%	-2%	-4%	4%	16%	-12%
CN1CCN(S(=O)(=O)c2cccc(C(=O)Oc3cccc(Br)c3)c2)CC1	?	/	/	4%	/	-3%	-27%	15%
CCSc1nc2ccccc2c(=O)n1OCC(=O)OC	0%	-92%	2.3%	-7%	0%	-8%	-2%	1%
CC1(C)C2CC=C(/C=N/NC(=S)NCCc3ccccc3)C1C2 (stereo not given)	-30%[46.1 µM]	0%	/	-1%	/	-29%	-13%	/
Cc1ccc(C)n1NC(=O)c1ccc([N+](=O)[O-])cc1	?	10%	/	0%	/	-12%	-12%	3%
CCS(=O)(=O)N1Cc2ccccc2CC1C(=O)Nc1ccc(C)cc1 (stereo not given)	-20%	0%	-2.6%	1%	?	-11%	-9%[3.69 µM]	1%
COc1ccc(NC(=O)CN(C)C(=O)c2cc(-c3ccco3)nc3ccccc23)cc1	-21%&-21%	/	/	-1%	/	?	4%	?
CC(c1ccccc1)C1C(C#N)=C(N)OC2=C1C(=O)CCC2 (stereo not given)	11%[46.1 µM]	7%	5.5%	1%	4%	-9%	-13%	-10%
CCn1c(CC(=O)Nc2ccccc2F)nnc1SCC(=O)NC1CCCC1	-1%[46.1 µM]	3%	/	-1%	/	-5%	9%	8%[46.1 µM]
O=C(NCCc1ccccc1)C(=O)c1c(-c2ccccc2)cc2ccccn12	-6%	-9%	-9.7%	13%	-6%	79%[activator]	-4%	0%
COCCN(CCOC)C(=O)CC(=O)N(CCOC)CCOC	21%	-3%	5.9%	-4%	2%	9%	?	0%
COC(=O)c1ccc(S(=O)(=O)N2CCCCCC2)cc1	19%	-4%	-1.9%	-6%	-7%	0%	6%	11%
CCc1csc(CCNC(=O)C2CCC(=O)N(CCc3cccc(F)c3)C2)n1 (stereo not given)	8%	-1%	/	-1%	/	7%	-5%	?
CCOc1c(CNc2nnnn2C)cccc1OC	1%[46.1 µM]	3%	/	0%	/	-7%	13%	15%[46.1 µM]
CC(/C=C/c1ccco1)=N/NC(=O)c1ccc(C)nc1	6%	-5%	/	0%	/	-5%	18%	?
Cc1cccc(S(=O)(=O)c2c(N)n(/N=C/c3cccnc3)c3nc4ccccc4nc23)c1	?	-90%	-0.7%	-2%	-12%	/	3%	-27%
CCc1ccc(-c2nn(CC(=O)NC3CCCCC3)c3c2cnc2ccc(C)cc23)cc1	/	/	-1.9%	/	1%	0%	/	-10%[46.1 µM]
CN(C)C(=O)c1cc(C(=O)Cc2ccccc2)c[nH]1	/	-3%	/	11%	/	-2%	-7%	/
CCn1c2ccccc2c2cc(CN3CCN(Cc4ccc(OC)c(OC)c4)CC3)ccc21	/	/	2.5%	/	-5%	-26%	/	?
Cc1ccc(NC(=O)C2CCC(CNS(=O)(=O)c3ccc4c(c3)C(C)(C)C(=O)N4C)CC2)cc1 (stereo not given)	/	/	0.1%	/	-12%	-13%	/	?
Cc1cccc(N2CCN(CC(O)COc3ccc4ccccc4c3)CC2)c1 (stereo not given)	1%[46.1 µM]	/	/	/	/	-22%	-20%	22%[46.1 µM]
Cc1ccc(/C=N/NC(=O)Cc2cccn2C)cc1	25%	1%	/	0%	/	70%[activator]	4%	12%
CCc1cc(=O)oc2cc(OC(C)C(=O)NCc3ccccn3)ccc12 (stereo not given)	-4%[46.1 µM]	-1%	/	2%	/	-4%	-1%	2%[46.1 µM]
Clc1cccc(-c2nn3c(Cn4cnc5ccccc54)nnc3s2)c1	-39%	-34%	-0.9%	-1%	?	?	-9%	-19%
O=C(COC(=O)c1ccccc1NCc1ccco1)Nc1ccc2c(c1)OCO2	6%[46.1 µM]	6%	-8.2%	-4%	?	24%	-18%	?
COc1cccc(/C=C2\Oc3cc(OCC(=O)N4CCC[C@H]4C(=O)O)ccc3C2=O)c1	/	?	/	-2%	/	-3%	10%	/
CN1CCN2c3ncccc3Cc3ccccc3[C@@H]2C1	/	-9%	/	-3%	/	-4%	6%	/
COc1cccc(C2=CC(c3ccccc3F)n3ncc(C(=O)Nc4ccc(C)cc4)c3N2)c1 (stereo not given)	/	/	-4.2%	/	-7%	-13%	/	-28%[46.1 µM]
COC(=O)c1ccccc1NC(=O)C1CCN(C(=O)N2CC(C)Oc3ccccc32)CC1 (stereo not given)	/	/	-1.3%	/	13%	-23%	/	1%[46.1 µM]
CCOC(=O)c1cnc2ccccc2c1Nc1ccc(N2CCOCC2)cc1	-3%[46.1 µM]	/	-4.1%	/	-3%	-14%	/	-6%[46.1 µM]
CS(=O)(=O)Nc1nc2n(n1)C(c1ccccc1)C=C(c1ccc(Br)cc1)N2 (stereo not given)	5%	16%	-21%	3%	?	-4%	10%	4%
Cc1ccc(NC(=O)CSc2nc3nc(C)cc(C)c3c(=O)[nH]2)cc1	-15%[46.1 µM]	4%	-0.9%	5%	19%	5%	11%	7%
CCN1CCN(c2nc3c(C)cccn3c(=O)c2/C=C(\C#N)C(=O)NCCOC)CC1	/	-2%	/	2%	/	-14%	-4%	/
COc1ccc(/C=N/NC(=O)c2cc(C)n(-c3ccccc3)c2C)cc1OC	?	/	/	4%	/	9%	-6%	/
NC(=S)Nc1cccc2cccnc12	19%	3%	7.4%	?	1%	-10%	0%	1%
CCCNC(=O)C(Cc1ccccc1)NS(=O)(=O)c1ccc2c(c1)c(=O)n(C)c(=O)n2C (stereo not given)	24%[46.1 µM]	1%	-1.3%&1.6%	8%	-5%&-21%	-14%&-3%	21%	26%[46.1 µM]
CC(C)Oc1cc(C(=O)NC2CCCCC2)c2ccccc2n1	?	9%	/	-2%	/	-18%	-3%	-9%[46.1 µM]
O=c1c2oc3ccccc3c2ncn1Cc1ccc(F)cc1	12%[46.1 µM]	/	/	1%	/	2%	13%	?
CCC(=O)NC(=S)Nc1ccc(NC(=O)COc2ccc(Cl)c(C)c2)cc1	?	22%	-5.4%	-15%	?	-4%	-11%	-7%
CC(C)(C)OC(=O)NCCCC[C@H](NC(=O)c1nc[nH]c1C(=O)NC1CCN(C(=O)OC(C)(C)C)CC1)C(=O)OC(C)(C)C	/	-5%	/	-4%	/	?	4%	/
Cc1cc(NC(=O)CCN2CCCCC2)ccc1Br	/	-4%	/	-9%	/	-4%	-14%	/
CCCCC1=CC2=CC(=O)C(C)(OC(=O)CC)C(=O)C2=CN1c1ccccc1 (stereo not given)	/	7%	/	0%	/	-15%	-8%	/

# Some of these compounds in order of number of heavy atoms, smallest number first.
SMILES	Marburg entry inh	NS1 function inh	Cruzain inh Det	SARS PLpro yeast	Cruzain noTriton	StopGo reporter	RE007 growth inh	LASV entry inh
O=c1c2oc3ccccc3c2ncn1Cc1ccc(F)cc1	12%[46.1 µM]	/	/	1%	/	2%	13%	?
Cc1ccc(NC(=O)CSc2nc3nc(C)cc(C)c3c(=O)[nH]2)cc1	-15%[46.1 µM]	4%	-0.9%	5%	19%	5%	11%	7%
CS(=O)(=O)Nc1nc2n(n1)C(c1ccccc1)C=C(c1ccc(Br)cc1)N2 (stereo not given)	5%	16%	-21%	3%	?	-4%	10%	4%
CCN1CCN(c2nc3c(C)cccn3c(=O)c2/C=C(\C#N)C(=O)NCCOC)CC1	/	-2%	/	2%	/	-14%	-4%	/

# The listing continues:
SMILES	Marburg entry inh	NS1 function inh	Cruzain inh Det	SARS PLpro yeast	Cruzain noTriton	StopGo reporter	RE007 growth inh	LASV entry inh
Cc1ccc(NC(=O)C(=O)NCC(c2ccc3c(c2)OCO3)N2CCN(c3ccccc3)CC2)cc1 (stereo not given)	/	/	0.2%	/	-15%	-6%	/	-8%[46.1 µM]
O=C(c1csc2c1CCCCC2)N1CCN(c2ncccn2)CC1	?	-33%	9.9%	-5%	-6%	/	-4%	0%
CCCOc1cc(C)c(S(=O)(=O)NCCOC)cc1C	-2%	-8%	-7.4%	-4%	11%	13%	-8%	?
CCCOc1ccc(NC(=O)C2CC(=O)N3CCCN=C3S2)cc1 (stereo not given)	-1%	-4%	-1.0%	-34%	?	-17%	?	9%
Cc1oc2ncn(C)c(=O)c2c1C(=O)N1CCN(c2ccc(Cl)cc2)CC1	/	/	-2.1%	/	-1%	15%	/	11%[46.1 µM]
COCCNC(=O)COc1ccc(N(C)S(=O)(=O)c2ccc3ccccc3c2)cc1	10%[46.1 µM]	-31%	/	-1%	/	-18%	8%	18%[46.1 µM]

# This is a random part of the collection. Share with any hit: about 4.7%.
